# StopGo RLuc – lowers the Renilla signal of an FMDV 2A StopGo reporter | actives 0.32% (n = 120,000) | Potency, µM (doses to about 57.5 µM), for the others: top-dose signal change, negative = less light | AID 1745857 | HEK cells with a luciferase reporter of 2A StopGo recoding; active means well fitted falling curve with a large enough effect; inconclusive means small, poorly fitted or top-dose-only effect; inactive means no such curve, though single readings can be large or run the other way; note: nearly all actives have a fitted effect of over 55% in size; overnight with compound
# 2A firefly – FMDV 2A StopGo reporter, firefly signal | HEK cells with a luciferase reporter of 2A StopGo recoding | Potency, µM (titrated, usually from 57.5 µM), without a hit: at the highest dose signal change, negative = less light | actives 0.23% (n = 120,000); active = well fitted falling curve with a large enough effect; inconclusive = small, poorly fitted or top-dose-only effect; inactive = no such curve, though single readings can be large or run the other way; note: nearly all actives have a fitted effect of over 60% in size; overnight with compound
# Starred values were filed as active, the others as inactive; ? = inconclusive; & = joins results of further samples; [ ] = dose if it differs, or a comment. % is set by controls: 0 for no effect and ±100 for the full control effect; potency is the fitted concentration of half-maximal effect. Compounds as they come; about 0.53% have a hit in one of these screens.
SMILES,StopGo RLuc,2A firefly
Cn1c(C(=O)N(Cc2ccccc2)Cc2ccccc2)cc2c(=O)n3ccccc3nc21,129.4%[activator],74.3%[activator]
CCC(=O)c1ccc2c(c1)N(CCCN(C)C)c1ccccc1S2,-4.6%,-24.1%
Cc1ccc2[nH]cc(C(C(=O)O)N3CCN(c4cccc(Cl)c4)CC3)c2c1 (stereo not given),-17.6%,-15.7%
CCCCn1c(=O)n(CC(=O)NCC(F)(F)F)c(=O)c2c1ncn2Cc1ccco1,-4.2%,4.6%
CC1(C)Cc2cccc(OCC(=O)OCc3cc(=O)oc4ccc5ccccc5c34)c2O1,-3.4%[1.06 µM],0.2%
Cc1ccc2c(c1)-c1onc(C(=O)N3CCN(c4cc(Cl)ccc4C)CC3)c1CO2,-3.6%,-1.0%
COc1ccc(Cl)cc1-n1nnc(-c2nc(-c3ccc4c(c3)OCO4)no2)c1C,-0.5%,0.0%
Cn1c(N)c(C(=O)c2cc(-c3ccccc3)nc3ccccc23)c(=O)n(C)c1=O,0.3%,38.0%[activator]
O=C(Nc1nnc(SCc2cc(=O)c3ccccc3[nH]2)s1)c1ccccc1,?,-17.5%
CNC(=O)c1ccc2c(c1)NC(=O)CS2,8.1%,7.4%
Cc1cc(NC(=O)c2cccn(Cc3ccccc3)c2=O)no1,-2.5%,9.4%
COc1cccc(C2=CC(c3cc(Cl)ccc3OC(F)F)n3ncnc3N2)c1 (stereo not given),12.9%,5.9%
COc1ccc(-c2nc(CSCC(=O)Nc3ccc(C#N)cc3)co2)cc1,-1.2%,8.5%
O=C(COC(=O)c1n[nH]c2ccccc12)Nc1ccc(OC(F)(F)F)cc1,-16.0%,55.4%[activator]
CCN(CC)CCOC(=O)c1ccc(Nc2c3c(nc4ccccc24)CCC3)cc1,-14.6%,-6.5%
CCN(Cc1ccccc1)C(=O)Cn1c(=O)n(Cc2ccccc2)c(=O)c2c1c1cc(OC)ccc1n2C,-9.9%,-14.3%
c1ccc(-c2noc(CSc3nnnn3C3CC3)n2)cc1,6.1%,88.0%[activator]
CSc1ccc(/C=C/c2nc3ccccc3n2S(=O)(=O)c2cccc(Cl)c2)cc1,-7.6%,0.0%
CNC(=O)c1cnc2sc(N3CCCCCC3)nn2c1=O,-5.3%,77.7%[activator]
CCC(Sc1nc2nccnc2c(=O)n1Cc1ccccc1Cl)C(=O)NC1CCCCC1 (stereo not given),-5.2%,-13.8%
O=C(NCc1cccc(Cl)c1)c1ccc2c(c1)nc1n2CCOC1,9.7%,17.6%
O=C(Cn1nnc(-c2ccccc2)n1)c1c[nH]c2ccccc12,-2.0%,8.7%
NS(=O)(=O)c1ccc(NC(=O)CN2C(=O)COc3ccc(Cl)cc32)cc1,27.4%,24.0%
O=C(COc1ccc(S(=O)(=O)NC2CCCC2)cc1)NCc1ccncc1,78.6%[activator],-6.9%
CCN1C(=O)COc2ccc(NC(=O)c3cc(=O)c4cc(C)cc(C)c4o3)cc21,-0.9%,-1.1%
O=S(=O)(c1ccc2[nH]c3c(c2c1)CCCCC3)N1CCN(c2cccc(Cl)c2)CC1,8.6%,-21.0%
COc1ccc(NC(=O)N2CCN(Cc3nc(-c4cccc(C(F)(F)F)c4)no3)CC2)cc1,?,-16.2%
COc1ccc(CNC(=O)c2ccc(NC(=O)N3CCSc4ncccc43)cc2)cc1,-7.9%,-11.7%
Cc1nc2nc(CNC(=O)OC(C)(C)C)nn2c(C)c1CCC(=O)NCc1ccccc1Cl,7.2%,7.9%
CC(C)(C)n1ncc2c1NC(=O)CC21C(=O)Nc2c(Cl)cccc21 (stereo not given),-4.6%,8.1%
CCOc1cc(/C=N/O)ccc1OCc1ccc(Cl)cc1,-1.8%,0.0%
CCn1nc(C(=O)OC2CCCCC2)c2ccccc2c1=O,25.7%,20.9%
Cc1cccc(-n2ncc3c2ncn2nc(-c4ccco4)nc32)c1,0.5%,170.4%[activator]
Cn1c(CN2CCCCC2)nc2cc(NC(=O)c3ccccc3Cl)ccc21,15.3%,0.0%
Cc1ccccc1OCCNc1ccc([N+](=O)[O-])c2cccnc12,-12.4%,-10.9%
Cc1ccc(OCC(=O)Nc2ccc(-c3nc4ccccc4o3)cc2)c(C)c1,-11.0%&-12.5%,13.6%&-3.8%
Cc1nc2cc(F)ccc2cc1C(=O)N1CCC(C)c2ccccc21 (stereo not given),8.9%,5.6%
Cc1nc2ccccc2nc1CS(=O)(=O)CC(=O)NC1CCCC1,-4.5%,4.6%
CCOc1ccccc1Oc1nc(C)nc2c1oc1ccccc12,32.4%[activator],25.9%
Nc1nc2nc(-c3ccc(Cl)cc3)cc(C(F)(F)F)n2n1,-1.2%,45.0%[activator]
CCCCc1c(C)nc(Nc2nc(C)c3cc(C)ccc3n2)[nH]c1=O,1.1%,33.2%
O=C(Cn1nnc2sc(-c3ccccc3)cc2c1=O)Nc1ccc(F)c(Cl)c1,-8.9%,4.5%
COc1ccc(OC)c(NC(=O)CCc2c(C)nn(-c3ccc(N4CCCC4)nn3)c2C)c1,13.9%,15.3%
COc1cc(C[C@@H](C)N)c(OC)cc1C,-13.5%[129 µM],-17.9%[27 µM]
CC(C)c1ccccc1NC(=S)NNC(N)=O,2.2%,11.8%
NC(=O)CCN1CCN(S(=O)(=O)c2cc(F)ccc2F)CC1,-17.2%,0.5%
COc1ccc(CNC(=O)c2ccc(CS(=O)(=O)c3ccc(OC)cc3)o2)cc1,4.4%,-18.6%
CC(NC(=O)c1ccc(CS(C)(=O)=O)cc1)c1ccccc1F (stereo not given),3.5%,-2.9%
Cc1ccc(-c2cc(C(=O)Nc3ccc(F)cc3)c3ccccc3n2)o1,-12.0%,14.6%
O=C(O)c1cccc(Nc2nc3ccccc3nc2NS(=O)(=O)c2ccc(Br)cc2)c1,-2.3%,10.1%
COc1cc(SC)ccc1C(=O)Oc1cccc(F)c1,-0.9%,0.0%
COc1cccc(C(=O)OCc2ccccc2C#N)c1,7.8%,3.8%
CC(C)c1ccc(NC(=O)COC(=O)C2CCN(c3ccc(C(F)(F)F)cn3)CC2)cc1,-10.1%,46.5%[activator]
CCN(Cc1nc2ccccc2c(=O)[nH]1)C(=O)CNC(=O)c1ccc(Cl)cc1,3.1%,1.1%
Cc1ccc(-c2nc3sc(CCNC(=O)c4ccco4)c(C)n3n2)cc1,9.4%,393.4%[activator]
COc1cc(NS(=O)(=O)c2cc(-c3cnc(C4CC4)o3)ccc2C)cc(OC)c1,-6.0%,?
COc1ccc(-c2cc3nc(N)cc(=O)n3[nH]2)cc1,10.8%,74.2%[activator]
Cc1ccc(C)c(NC(=O)Cn2cc(C(=O)C3CCCCC3)c3ccccc32)c1,-3.0%,-5.8%
Cc1cc(NC(=O)CCc2ncc(-c3ccccc3Cl)o2)ccc1Br,0.5%,11.8%
Cc1cc(=O)oc2cc(OCC(=O)Nc3ccc(Oc4ccccc4)cc3)ccc12,-8.8%,-4.1%
# Later entries
SMILES,StopGo RLuc,2A firefly
CCCc1nc2ccccc2n2c(-c3ccc(C)cc3)c3c(=O)n(C)c(=O)n(C)c3c12,-12.2%,-18.1%
Cc1ccccc1Nc1c(-c2cccs2)nc2cccc(C)n12,7.6%,-2.6%
N#Cc1cc2c(=O)n3ccccc3nc2n(-c2nnc(SCc3ccccc3)s2)c1=O,-6.1%,-2.6%
COc1ccc(Cn2c(C(=O)O)c(CNCc3ccc(OC)cc3OC)c3ccc(C)cc32)cc1,-3.0%,-22.1%
COc1cccc(-c2noc(CCC(=O)NCC3CCCO3)n2)c1 (stereo not given),2.6%,39.4%[activator]
Cc1nn(Cc2cccc(F)c2)c(C)c1NS(=O)(=O)c1c(C)nn(C)c1C,6.4%,-3.2%
CCOc1ccc(C(=O)N2CCC(c3ccncc3)CC2)cc1,?,?
Cc1c(NC(=O)C(C)(C)c2ccccc2)cccc1C(=O)N1CCc2sccc2C1,9.9%,-8.3%
CCC(=O)Oc1cccc2cc(-c3nc(-c4ccc(OC)cc4)no3)c(=O)oc12,6.6%,15.4%
C=CCC1Cc2ccccc2C(CC=C)N1 (stereo not given),-4.4%,-0.9%
Cc1ccc(NC(=O)CCC(=O)N2CCSc3ccccc32)cc1,9.5%,0.2%
Cc1ccc(-c2cnc(CCC(=O)Nc3cccc(Cl)c3)o2)cc1C,14.8%,27.6%
O=C(Nc1ccc2oc(-c3ccccc3)nc2c1)c1ccco1,-3.1%,198.2%[activator]
CNC(=O)c1ccc(CN(C)CCc2cccs2)cc1,-4.7%,0.0%
COc1cc(NC(=O)c2cc(-c3cccs3)on2)c(OC)cc1Cl,1.6%,2.0%
CCCCN(Cc1ccccc1)c1ccc(NS(=O)(=O)c2ccc(CC(C)C)cc2)cc1C(=O)O,135.6%[activator],9.0%
Cc1ccc(-n2ncc(C(=O)Nc3ccc4c(c3)OCCO4)c2C2CCN(C(=O)OC(C)(C)C)CC2)cc1,-5.2%,22.4%
CCN(Cc1ccccc1)C(=O)Cn1c(=O)c2c(ncn2C)n(C)c1=O,-0.9%,5.0%
Cc1ccc(NC(=O)C(C)N2CCC(C(=O)NCc3ccccc3)CC2)c(Br)c1 (stereo not given),8.4%,-12.7%
Cc1ccccc1OCc1nnc(SCc2cc(=O)c3cccc(F)c3[nH]2)n1C,5.0%,0.0%
CCCOc1ccccc1C(C)N (stereo not given),-13.2%,-11.8%
Cc1ccccc1Nc1nc(-c2cc3ccccc3oc2=O)cs1,-7.1%,0.0%
Cc1ccc(CNC(=O)Cc2ccc(NC(=O)N3CCSc4ncccc43)cc2)cc1,-6.2%,30.3%[activator]
CC(=O)Nc1ccc(N2C(=O)C/C(=C/c3cn(C)c4ccccc34)C2=O)cc1,-5.5%,12.1%
CC(C)Cn1nc(C(=O)Nc2nc3c(s2)CN(Cc2ccccc2)CC3)c2ccccc2c1=O,63.9%[activator],58.7%[activator]
O=C(COC(=O)c1ccc(S(=O)(=O)N2CCCCCC2)cc1)Nc1ccc(Cl)cn1,-7.0%,-4.1%
COc1ccc2cc(C(=O)NCc3ccc4c(c3)CCN4C(=O)c3ccc(F)cc3)[nH]c2c1,98.3%[activator],4.3%
Cc1n[nH]c(C)c1I,-7.3%,0.0%
CCOC(=O)c1cccc(NC(=O)C2CCN(S(=O)(=O)c3cn(C)cn3)CC2)c1,-11.6%,-12.8%
Cc1ccc2oc(-c3ccc(NC(=O)c4ccc5c(c4)OCO5)cc3)nc2c1,3.7%,194.3%[activator]

# Compounds listed so far that have an aryl methoxy group, in the order listed:
SMILES,StopGo RLuc,2A firefly
COc1ccc(Cl)cc1-n1nnc(-c2nc(-c3ccc4c(c3)OCO4)no2)c1C,-0.5%,0.0%
COc1cccc(C2=CC(c3cc(Cl)ccc3OC(F)F)n3ncnc3N2)c1 (stereo not given),12.9%,5.9%
COc1ccc(-c2nc(CSCC(=O)Nc3ccc(C#N)cc3)co2)cc1,-1.2%,8.5%
CCN(Cc1ccccc1)C(=O)Cn1c(=O)n(Cc2ccccc2)c(=O)c2c1c1cc(OC)ccc1n2C,-9.9%,-14.3%
COc1ccc(NC(=O)N2CCN(Cc3nc(-c4cccc(C(F)(F)F)c4)no3)CC2)cc1,?,-16.2%
COc1ccc(CNC(=O)c2ccc(NC(=O)N3CCSc4ncccc43)cc2)cc1,-7.9%,-11.7%
COc1ccc(OC)c(NC(=O)CCc2c(C)nn(-c3ccc(N4CCCC4)nn3)c2C)c1,13.9%,15.3%
COc1cc(C[C@@H](C)N)c(OC)cc1C,-13.5%[129 µM],-17.9%[27 µM]
COc1ccc(CNC(=O)c2ccc(CS(=O)(=O)c3ccc(OC)cc3)o2)cc1,4.4%,-18.6%
COc1cc(SC)ccc1C(=O)Oc1cccc(F)c1,-0.9%,0.0%
COc1cccc(C(=O)OCc2ccccc2C#N)c1,7.8%,3.8%
COc1cc(NS(=O)(=O)c2cc(-c3cnc(C4CC4)o3)ccc2C)cc(OC)c1,-6.0%,?
COc1ccc(-c2cc3nc(N)cc(=O)n3[nH]2)cc1,10.8%,74.2%[activator]
COc1ccc(Cn2c(C(=O)O)c(CNCc3ccc(OC)cc3OC)c3ccc(C)cc32)cc1,-3.0%,-22.1%
COc1cccc(-c2noc(CCC(=O)NCC3CCCO3)n2)c1 (stereo not given),2.6%,39.4%[activator]
CCC(=O)Oc1cccc2cc(-c3nc(-c4ccc(OC)cc4)no3)c(=O)oc12,6.6%,15.4%
COc1cc(NC(=O)c2cc(-c3cccs3)on2)c(OC)cc1Cl,1.6%,2.0%
COc1ccc2cc(C(=O)NCc3ccc4c(c3)CCN4C(=O)c3ccc(F)cc3)[nH]c2c1,98.3%[activator],4.3%
